Shh pathway inh: blocks Sonic Hedgehog signaling; hit rate 2.1% among 22,000; inhibition, % (test concentration not listed); Shh-LIGHT2 Gli-luciferase reporter, 30 h; AID 2313;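 active means replicate mean of 65% or more; inconclusive means mean lower but half the replicates past it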;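 further: pathway switched on by Shh-conditioned medium diluted 1 in 25 in low serum; 100 nL library stock added to about 40 µL; 0% = median of neutral wells and 100% = positive control level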
YB-1 expression: YB-1 expression inhibition. hit rate 0.37% among 30,000. delta delta Cp (YB-1 minus CDIP) (concentration not given with the values). U2OS, qRT-PCR YB-1 vs CDIP delta delta Cp, 16 h; hits give high values; zero = DMSO, each unit about twofold;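 active means delta delta Cp rounded down to an integer at or above 3, about 3 SD of DMSO wells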;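 further: higher means less YB-1 transcript or more CDIP transcript relative to DMSO; stock transfer was 100 nL into about 100 µL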
PD-1 reverse act: reversal of PD-1 mediated T-cell inhibition | activation, % (no concentration beside the values) | AID 2316 | primary human CD4 T cells, PD-L1 beads, CellTiter-Glo 96 h | 29,000 tested, under 10 active;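 active means replicate mean of 50% or more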;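 further: 0% = median vehicle wells and 100% = positive control; 100 nL library stock added to about 50 µL; numbers are from one replicate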
MITF inh: blocks MITF activity; inhibition, % (concentration not given with the values); TRPM1 promoter luciferase, luminescence, 24 h; hit rate 0.28% among 37,000;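 active means most replicates at 85% or more, or half of them and the mean; inconclusive means half reach 85% but not the mean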;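 further: human melanocyte line stably carrying TRPM1 promoter luciferase reporter; 0% = vehicle wells and 100% = a positive control; the first replicate is given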
* marks the source's active call; other numbers are inactive results; ? = inconclusive; · = no result given. Not all compounds are listed; count on the stated rates, not on these rows.

Sequence of screens – Shh pathway inh	YB-1 expression	MITF inh	PD-1 reverse act
- C[C@H](CO)N1C[C@H](C)[C@H](CN(C)S(=O)(=O)c2cn(C)cn2)Oc2c(NS(C)(=O)=O)cccc2C1=O
 : -3	0.18	-2	·
- C[C@@H]1CN([C@H](C)CO)C(=O)Cc2cc(NC(=O)C3CC3)ccc2O[C@@H]1CN(C)S(=O)(=O)c1ccccc1
 : ·	-0.16	-3	-0.7
- O=C(NCC[n+]1ccc2ccccc2c1)c1ccccc1
 : -26	-0.36	1	0.0
- C[C@@H]1CCCCO[C@H](CN(C)S(=O)(=O)c2cccs2)[C@@H](C)CN([C@H](C)CO)C(=O)c2cc(NS(=O)(=O)c3ccc(F)cc3)ccc2O1
 : 38	0.13	8	·
- C[C@@H]1CN([C@H](C)CO)C(=O)c2cccc(NS(=O)(=O)c3ccc(Cl)cc3)c2O[C@H]1CN(C)C(=O)Nc1ccc2c(c1)OCO2
 : -3	0.35	2	2.7
- C[C@@H]1CN([C@@H](C)CO)C(=O)c2cccc(NS(=O)(=O)c3ccccc3)c2O[C@H]1CN(C)Cc1ccc(C(=O)O)cc1
 : 9	0.17	9	·
- CC(=O)Nc1ccc(C(=O)Nc2ccc(S(=O)(=O)Nc3nccs3)cc2)cc1
 : ·	·	5	2.7
- COc1ccc(NC(=O)Nc2cccc3c2O[C@@H](CN(C)C(=O)NC(C)C)[C@@H](C)CN([C@@H](C)CO)C3=O)cc1
 : 3	0.096	-29	2.6
- C[C@@H]1CN([C@@H](C)CO)C(=O)c2cccc(NC(=O)CCCCCC(=O)Nc3ccccc3N)c2O[C@H]1CN(C)S(C)(=O)=O
 : ·	-0.57	-1	0.7
- CC(=O)Nc1cccc(NC(=O)CNc2ccc(C(F)(F)F)cc2[N+](=O)[O-])c1
 : ·	·	7	1.0
- C[C@H]1CN([C@@H](C)CO)C(=O)c2cc(NC(=O)Nc3ccc4c(c3)OCO4)ccc2O[C@H]1CN(C)C
 : ·	-17	2	2.4
- COc1ccc(C2=NN(S(C)(=O)=O)C(c3ccccc3OC)C2)cc1 (centres undefined)
 : -14	0.45	12	0.9
- Cc1noc(C)c1NC(=O)N(C)C[C@@H]1Oc2c(cccc2N(C)C)C(=O)N([C@@H](C)CO)C[C@@H]1C
 : -92	0.08	4	1.3
- CCOC(=O)c1sc(SCCS(=O)(=O)c2ccc(Cl)cc2)c2c1CCCC2=O
 : 16	-0.22	-8	0.3
- COc1ccc(NC(=O)N(C)C[C@H]2Oc3ccc(NS(=O)(=O)c4ccccc4)cc3CC(=O)N([C@H](C)CO)C[C@H]2C)cc1
 : -13	-0.26	-2	-0.6
- C[C@@H]1CN([C@H](C)CO)C(=O)Cc2cc(NC(=O)Cn3cnnn3)ccc2O[C@@H]1CN(C)S(=O)(=O)c1cn(C)cn1
 : ·	-0.74	8	·
- Cn1c(Cc2csc(N)n2)nnc1SC/C=C/c1ccccc1
 : ·	·	-1	2.1
- NC(=O)c1cc(Cl)c(Cl)cc1C(N)=O
 : -10	-0.11	0	1.3
- C[C@@H]1CN([C@@H](C)CO)C(=O)c2cc(NC(=O)Nc3ccc4c(c3)OCO4)ccc2O[C@H]1CN(C)Cc1ccc(C(=O)Nc2ccccc2N)cc1
 : ·	-0.17	2	-1.1
- COc1ccc(CN(C)C[C@@H]2Oc3c(NC(=O)c4ccc(-c5nccs5)cc4)cccc3C(=O)N([C@H](C)CO)C[C@H]2C)cc1
 : 17	0.26	35	-3.6
- C[C@@H]1CN([C@H](C)CO)C(=O)Cc2cc(NC(=O)Nc3cccc4ccccc34)ccc2O[C@H]1CN(C)S(=O)(=O)c1ccc(F)cc1
 : -1	0.28	-9	-0.5
- O=C1CC(C(=O)NCc2ccccc2)N=C(N2CCCCC2)N1 (centres undefined)
 : ·	·	-4	-0.2
- C[C@H](CO)N1C[C@H](C)[C@H](CN(C)Cc2ccc(Oc3ccccc3)cc2)Oc2c(NC(=O)c3ccc(-c4nccs4)cc3)cccc2C1=O
 : 43	-0.22	-4	-2.8
- CC(C)NC(=O)N(C)C[C@H]1Oc2c(NS(=O)(=O)c3cccs3)cccc2C(=O)N([C@@H](C)CO)C[C@H]1C
 : 7	-0.1	-3	1.9
- Cc1ccc(S(=O)(=O)N(C)C[C@H]2OCCCC[C@@H](C)Oc3ccc(NS(=O)(=O)c4ccccc4)cc3C(=O)N([C@H](C)CO)C[C@@H]2C)cc1
 : 60	-1	29	-6.0
- COc1ccc(NC(=O)Nc2cccc3c2O[C@@H](CN(C)S(C)(=O)=O)[C@@H](C)CN([C@H](C)CO)C3=O)cc1
 : -8	-0.25	-9	3.5
- COCCNC(=O)c1ccccc1NC(=O)Nc1ccccc1
 : ·	·	-19	0.1
- CC(C)NC(=O)N(C)C[C@@H]1Oc2ccc(NC(=O)CCC(F)(F)F)cc2CC(=O)N([C@@H](C)CO)C[C@@H]1C
 : -54	0.048	-2	0.9
- COc1ccccc1NC(=O)CSc1nnc(-c2ccc(Br)cc2)n1C
 : ·	·	14	-1.1
- C[C@H]1CN([C@@H](C)CO)C(=O)c2cccc(NC(=O)Nc3ccc(C(F)(F)F)cc3)c2O[C@H]1CN(C)C
 : -4	-0.035	-3	0.2

3 compounds picked at random from the list so far, as already listed:
Sequence of screens – Shh pathway inh	YB-1 expression	MITF inh	PD-1 reverse act
- COc1ccccc1NC(=O)CSc1nnc(-c2ccc(Br)cc2)n1C
 : ·	·	14	-1.1
- C[C@@H]1CN([C@@H](C)CO)C(=O)c2cc(NC(=O)Nc3ccc4c(c3)OCO4)ccc2O[C@H]1CN(C)Cc1ccc(C(=O)Nc2ccccc2N)cc1
 : ·	-0.17	2	-1.1
- C[C@H]1CN([C@@H](C)CO)C(=O)c2cccc(NC(=O)Nc3ccc(C(F)(F)F)cc3)c2O[C@H]1CN(C)C
 : -4	-0.035	-3	0.2

Next part.
Sequence of screens – Shh pathway inh	YB-1 expression	MITF inh	PD-1 reverse act
- CCn1c(SCc2nc3ccccc3c(=O)[nH]2)nc2ccccc2c1=O
 : ·	·	8	-3.2
- COc1ccc(S(=O)(=O)N(C)C[C@@H]2Oc3ccc(NC(=O)Nc4ccc5c(c4)OCO5)cc3C(=O)N([C@H](C)CO)C[C@H]2C)cc1
 : -37	0.15	-8	-2.6
- COc1ccc(CCN2CCC(Nc3nc4ccccc4n3Cc3ccc(F)cc3)CC2)cc1
 : 40	0.19	-10	1.4
- CC(C)NC(=O)Nc1ccc2c(c1)CC(=O)N([C@H](C)CO)C[C@@H](C)[C@@H](CN(C)Cc1ccc(C(F)(F)F)cc1)O2
 : ·	-0.0014	-16	0.0
- O=C(CSc1nnc(-c2ccncc2)n1-c1ccccc1)Nc1ccc(Cl)c(Cl)c1
 : ·	·	18	-2.9
- C[C@@H]1CN([C@H](C)CO)C(=O)Cc2cc(NS(=O)(=O)c3cccs3)ccc2O[C@H]1CN(C)Cc1ccc2c(c1)OCO2
 : -1	0.012	-7	·
- C[C@@H]1CN([C@@H](C)CO)C(=O)c2cccc(NC(=O)c3nc4ccccc4s3)c2O[C@H]1CN(C)Cc1ccc(Cl)c(Cl)c1
 : -6	0.56	6	-1.4
- Cc1nc(C2C(=O)c3ccc(O)c(O)c3OC2C(F)(F)F)cs1 (centres undefined)
 : -2	-0.015	23	0.8
- CC(C)NC(=O)N(C)C[C@@H]1Oc2ccc(NS(=O)(=O)c3cn(C)cn3)cc2CC(=O)N([C@@H](C)CO)C[C@@H]1C
 : -24	-0.11	-6	1.8
- O=C1c2ccccc2C(=O)N1CN(C(=O)C(F)(F)F)c1ccc(Cl)cc1
 : 2	0.015	0	-0.6
- Cc1cc(O)c(Cc2c(O)cc(C)oc2=O)c(=O)o1
 : 3	0.19	-13	2.6
- C[C@@H]1CN([C@H](C)CO)C(=O)c2cc(NS(C)(=O)=O)ccc2O[C@@H]1CN(C)S(=O)(=O)c1ccc(Cl)cc1
 : ·	-0.087	-18	·
- CCOC(=O)c1sc(SCc2ccccc2)c2c1-c1sccc1N(C)S2(=O)=O
 : 35	-0.7	9	-1.5
- C[C@H](CO)N1C[C@H](C)[C@H](CN(C)CC2CCCCC2)Oc2ccc(NC(=O)Cn3cnnn3)cc2C1=O
 : ·	-0.14	-13	2.5
- COc1ccc(S(=O)(=O)N(C)C[C@H]2Oc3ccc(NS(=O)(=O)c4c(C)noc4C)cc3CC(=O)N([C@H](C)CO)C[C@H]2C)cc1
 : -5	-0.26	4	-1.8
- COc1cccc(CN2c3cccc4cccc(c34)S2(=O)=O)c1
 : -12	-0.12	10	1.7
- CN(C)c1ccc(-c2nc3ccc4ccccc4c3c3c2CCC3)cc1
 : -69	-0.44	-25	0.2
- C[C@@H]1CN([C@@H](C)CO)C(=O)c2cc(NC(=O)c3ccncc3)ccc2O[C@H]1CN(C)Cc1ccc(Cl)c(Cl)c1
 : ·	-0.49	-11	-0.6
- C[C@@H]1CN([C@@H](C)CO)C(=O)Cc2cc(NC(=O)Nc3ccc(F)cc3)ccc2O[C@@H]1CN(C)S(=O)(=O)c1cccs1
 : -8	-0.055	-5	0.5
- CS(=O)(=O)N(CC(=O)Nc1ccccc1F)c1ccc(F)cc1
 : ·	·	-25	0.4
- Cc1cc(C(=O)Nc2cccc3c2O[C@H](CN(C)S(=O)(=O)c2cccs2)[C@@H](C)CN([C@@H](C)CO)C3=O)n(C)n1
 : -27	0.077	-1	0.8
- O=C(c1ccccc1)c1nnn(-c2ccccc2)c1Nc1ccccc1
 : ?	0.99	-41	-1.7
- C[C@@H]1CN([C@@H](C)CO)C(=O)Cc2cc(NC(=O)C3CCCCC3)ccc2O[C@@H]1CN(C)S(=O)(=O)c1ccc(F)cc1
 : 13	-0.23	-3	-0.7
- C/C=C/C1=C(Cl)C(=O)[C@@H](O)[C@@]1(O)C(=O)OC
 : 48	-0.22	23	-9.5
- C[C@@H]1CCCCO[C@@H](CN(C)C)[C@@H](C)CN([C@H](C)CO)C(=O)c2cc(NC(=O)C3CCCCC3)ccc2O1
 : -63	-0.2	-8	·
- C[C@@H]1CN([C@@H](C)CO)C(=O)c2cc(NC(=O)c3ccncc3)ccc2O[C@@H]1CN(C)Cc1ccncc1
 : 10	-0.28	-4	0.1
- C[C@@H]1CN([C@H](C)CO)C(=O)c2cccc(NC(=O)CCCCCC(=O)Nc3ccccc3N)c2O[C@@H]1CN(C)CC1CC1
 : ·	-0.0057	-14	2.0
- CCn1cc(C(C)NC(=O)Nc2ccccc2C(=O)OC)c(C)n1 (centres undefined)
 : ·	·	-19	-0.4
- CNC[C@H]1Oc2c(NC(=O)NC3CCCCC3)cccc2C(=O)N([C@@H](C)CO)C[C@H]1C
 : 24	-0.55	-10	-0.8
- C[C@H]1CC[C@@H]2[C@@H](C(=O)c3c(O)c([C@]4(O)CC[C@@H](O)[C@H]5O[C@H]54)cn(O)c3=O)[C@@H](C)C=C[C@H]2C1
 : 94*	1.7	67	-11
- Cc1ccc(S(=O)(=O)N(C)C[C@@H]2Oc3c(NC(=O)Nc4ccc(C(F)(F)F)cc4)cccc3C(=O)N([C@H](C)CO)C[C@@H]2C)cc1
 : ?	0.12	-22	-4.0
- COc1ccc(NC(=O)N(C)C[C@H]2Oc3ccc(NC(=O)Nc4c(C)noc4C)cc3CC(=O)N([C@@H](C)CO)C[C@H]2C)cc1
 : ·	-0.0045	-5	-0.6
- C[C@H](CO)N1C[C@H](C)[C@@H](CN(C)Cc2ccc(-c3ccccc3)cc2)Oc2ccc(NS(=O)(=O)c3ccccc3)cc2C1=O
 : ·	-0.12	7	2.4
- C[C@@H]1CN([C@H](C)CO)C(=O)Cc2cc(NS(=O)(=O)c3ccccc3)ccc2O[C@H]1CN(C)C(=O)Nc1ccc(F)cc1
 : -34	0.45	-7	·
- C[C@@H]1CN([C@H](C)CO)C(=O)c2cccc(NC(=O)Nc3ccccc3)c2O[C@@H]1CN(C)Cc1ccc2c(c1)OCO2
 : 39	-0.18	-23	-0.4
- Cc1onc(-c2ccccc2)c1-c1ccc(S(N)(=O)=O)cc1
 : -1	0.26	-14	·
- C[C@H](CO)N1C[C@H](C)[C@H](CN(C)S(=O)(=O)c2ccccc2)Oc2ccc(NS(=O)(=O)c3ccc(F)cc3)cc2CC1=O
 : 15	0.044	-22	·
- CS(=O)(=O)N(CC(=O)Nc1ccccc1C(F)(F)F)c1cc(Cl)c(Cl)cc1Cl
 : ·	·	13	1.6
- Cc1noc(C)c1NC(=O)Nc1ccc2c(c1)C(=O)N([C@@H](C)CO)C[C@@H](C)[C@@H](CN(C)C(=O)NC(C)C)O2
 : -18	-0.25	-5	2.0
- C[C@@H]1CN([C@@H](C)CO)C(=O)Cc2cc(NC(=O)Nc3ccccc3)ccc2O[C@@H]1CN(C)C(=O)NC1CCCCC1
 : -17	-0.43	8	-3.5
- COc1ccc(C(=O)NC(CO)(CO)CO)cc1OC
 : -12	-0.77	-4	0.2

One compound at a time (already shown). Order of screens: Shh pathway inh, YB-1 expression, MITF inh, PD-1 reverse act
Shown for C[C@H](CO)N1C[C@H](C)[C@H](CN(C)S(=O)(=O)c2ccccc2)Oc2ccc(NS(=O)(=O)c3ccc(F)cc3)cc2CC1=O = 15, 0.044, -22, ·
Shown for C[C@H](CO)N1C[C@H](C)[C@@H](CN(C)Cc2ccc(-c3ccccc3)cc2)Oc2ccc(NS(=O)(=O)c3ccccc3)cc2C1=O = ·, -0.12, 7, 2.4

Screening data (PubChem BioAssay)
